From PubChem
TRPML1 blocker: human mucolipin-1 channel inhibition. 390,000 tested, 0.02% active. TRPML1-inducible cells, Ca2+ dye fluorescence, FDSS; hits give low values; inhibition of EC80 agonist-evoked calcium signal. activity change, negative = inhibition, % (concentration not given with the values). Q9GZU1; in the data active means activity change below about -50%; inconclusive means about -30% to -50%; inactive means above about -30%;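 note: stimulus is agonist 54-4 at its EC80 concentration; % is set by controls: 0 for no effect and ±100 for the full control effect; compound concentration not given in the record; the text of the record puts the active cut at -80%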
Target sequence (Q9GZU1 whole entry, looked up): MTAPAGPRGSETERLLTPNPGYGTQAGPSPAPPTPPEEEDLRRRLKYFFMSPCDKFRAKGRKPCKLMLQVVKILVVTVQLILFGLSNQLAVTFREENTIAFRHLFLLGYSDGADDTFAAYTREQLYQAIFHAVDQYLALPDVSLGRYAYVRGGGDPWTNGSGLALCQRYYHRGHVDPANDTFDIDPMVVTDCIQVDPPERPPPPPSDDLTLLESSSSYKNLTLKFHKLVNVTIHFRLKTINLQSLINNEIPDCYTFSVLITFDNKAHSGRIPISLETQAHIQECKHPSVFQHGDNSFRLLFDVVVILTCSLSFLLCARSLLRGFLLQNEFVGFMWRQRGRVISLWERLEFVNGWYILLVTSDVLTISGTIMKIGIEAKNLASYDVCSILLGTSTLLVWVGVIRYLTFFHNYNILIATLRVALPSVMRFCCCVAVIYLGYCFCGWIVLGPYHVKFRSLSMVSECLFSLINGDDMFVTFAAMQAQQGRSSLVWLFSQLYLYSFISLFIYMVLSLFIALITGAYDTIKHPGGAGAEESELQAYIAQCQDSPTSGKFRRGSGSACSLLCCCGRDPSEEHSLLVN
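TRPML1-DL cells, Tet-induced overnight (~16 h, 37 °C) at 1,500 cells/well, were loaded with Ca8 no-wash dye plus quencher for 45-90 min at room temperature. Compounds were pinned during FDSS kinetic reading; agonist 54-4 at EC80 (4 uM final) then added.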
TRPV1 potentiator: human TRPV1 potentiation; Q8NER1; TRPV1-expressing cells, Fluo-8 calcium influx, capsaicin EC20 potentiation; host cell line not named in the record; control for the full effect not named in the record; potentiation, % at 8.33 µM; 320,000 tested, 0.02% active; active means potentiation above 80%; inconclusive means 30% to 80%; inactive means below 30%; note: 0% is about no effect
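TRPV1-expressing cells were cultured overnight at 35.5C and loaded with Fluo-8 calcium dye for 40 to 90 min at room temperature. After a 10 s baseline, compound was added and calcium influx was read kinetically for 3 min (ex 480/em 520 nm).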
Menin-MLL FL inh: inhibitors of human menin-MLL interaction, wild-type MLL peptide; Fluorescence polarization, fluorescein-MLL peptide displacement from menin; FP activity change, % at 61.4 µM; 290,000 tested, under 10 active; inconclusive = falling polarisation curve, or a change in total fluorescence; inactive = total fluorescence flat and polarisation flat or rising; no compound was filed as active; the % refers to the polarisation; negative = inhibition;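 note: % of control where 0% means no effect; inhibitors lower the polarisation; unlabelled MLL peptide was the positive control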
ClpP mod: qHTS Assay for Activators of ClpP; ATP-dependent Clp protease proteolytic subunit (Bacillus subtilis (strain 168)), P80244; purified B. subtilis ClpP, FRET peptide cleavage, 20 min; Potency, µM (top dose mostly 57.5 µM), without a hit: top-dose activity change, negative = active; 340,000 tested, 1.9% active; active = well fitted falling curve with a large enough effect; inconclusive = small, poorly fitted or top-dose-only effect; inactive = no such curve, though single readings can be large or run the other way; note: potency is the fitted concentration of half-maximal effect; the source files actives as falling curves though it sought activators and does not explain the sign; nearly all actives have a fitted effect of over 65% in size; many hits overshoot -100%
Target sequence (P80244 whole entry, looked up): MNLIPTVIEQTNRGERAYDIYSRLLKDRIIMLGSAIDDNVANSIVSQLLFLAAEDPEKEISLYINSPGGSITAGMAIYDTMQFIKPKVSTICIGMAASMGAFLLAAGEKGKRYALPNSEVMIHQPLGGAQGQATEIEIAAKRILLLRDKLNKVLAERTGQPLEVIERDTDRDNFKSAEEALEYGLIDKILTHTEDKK
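FRET quenching reversal measured ClpP activation: 10 microg/mL B. subtilis ClpP at pH 8 with the FRET-FV decapeptide, read at 430 nm after 320 nm excitation. The 20-min minus 0-min signal was scaled between DMSO/no-enzyme wells and ADEP (5.8 microM final).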
gsp antagonist: gsp mutant antagonism; 340,000 tested, 0.4% active; Potency, µM (series often up to 76.9 µM), without a hit: at the highest dose activity change, negative = inhibition, hits mostly inhibitors; AID 624288; gsp-mutant cells, cAMP HTRF, 30 min; control for the full effect not named in the record; active = falling curve of any shape with a large fitted effect; inconclusive = falling curve, mostly with a smaller effect; inactive = flat or rising curve; cell line not stated here;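 note: intracellular cAMP measured with PDE inhibitor Ro 20-1724 present during compound exposure; potency is the fitted concentration of half-maximal effect; % is set by controls: 0 for no effect and ±100 for the full control effect; nearly all actives have a fitted effect of over 65% in size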
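Cells in G418 medium, seeded 16-24 h, 37C; buffer exchange to DPBS + 1 mM CaCl2, 0.5 mM MgCl2, 0.05% BSA; cpds in DMSO + […] (300 uM stock), 30 min 37C; HTRF cAMP detection.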
gsp agonist: gsp mutant agonism; Potency, µM (top dose mostly 76.9 µM), for inactives: at the top dose activation (cAMP increase), actives largely listed as activators; 340,000 tested, 0.13% active; gsp mutant cells, cAMP HTRF, 30 min; control for the full effect not named in the record; active = well fitted activation curve with a large enough effect; inconclusive = small, poorly fitted or top-dose-only effect, or another doubt; inactive = no such curve, though single readings can be large or run the other way; cell line not stated here;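 note: phosphodiesterase inhibitor Ro 20-1724 added with compounds to block cAMP breakdown; potency is the fitted concentration of half-maximal effect; nearly all actives have a fitted effect of over 60% in size; about a fifth of the inactives were tested at one dose only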
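Cells stably selected in G418 were plated at 2000/well, grown 16-24 hr, then given compounds in DMSO with the PDE inhibitor […] (300 uM solution added) for 30 min at 37C; cAMP was read by HTRF.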
Sfp PPTase inh: inhibitors of Bacillus subtilis Sfp phosphopantetheinyl transferase | Q9F4F7 | Biochemical Sfp PPTase activity, qHTS | Potency, µM, inactives show max response, negative = inhibition, most hits filed as inhibitors | 310,000 tested, 3.5% active | AID 1490; active = well fitted inhibition curve with a large enough effect; inconclusive = small, poorly fitted or top-dose-only effect, or another doubt; inactive = no such curve, though single readings can be large or run the other way;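 note: the enzyme is Sfp with the accession as filed and its product quenches rhodamine fluorescence; potency is the fitted concentration of half-maximal effect; 0% = enzyme reaction without inhibitor and -100% = no enzyme wells; top concentration of the series not given in the record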
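Fluorescence-quenching assay with 15 nM Sfp, 5 uM rhodamine-CoA and 12.5 uM BHQ-2-labelled ybbR peptide in pH 7.6 Hepes/MgCl2 buffer. Enzyme was pre-incubated with compound for 15 min at room temperature. Rate was taken from the 30-min fluorescence change (525/598 nm).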
* = called active by the depositor; ? = inconclusive; / = no result given; [ ] = remark or other dose.

Every second line gives: TRPML1 blocker	TRPV1 potentiator	Menin-MLL FL inh	ClpP mod	gsp antagonist	gsp agonist	Sfp PPTase inh
- CCC(CC)C(=O)Nc1cccc(C(=O)NCCc2ccc(S(N)(=O)=O)cc2)c1
  -2	11	-2.5	0.8%	-8%	-6%	-2%
- CCOC(=O)CN1C(=O)C(O)=C(C(C)=O)C1c1ccc(F)cc1 (stereo not given)
  -12	23	5.8	-4.3%	1%	11%	4%
- CCN(c1ccccc1)S(=O)(=O)c1ccc(OCC(=O)N2CCCC2)cc1
  -1	-12	/	0.3%	4%	6%	/
- CCn1c(SCC(N)=O)nnc1-c1ccc(OC)c(OC)c1
  -8	-12	1.8	-0.5%	0%	-5%	16%
- CCCCC(=O)Nc1cc(OC)c(NC(=S)NC)cc1OC
  16	0	-7.4	-0.3%	7%	3%	?
- CCOC(=O)Cn1c(CN2CC(C)OC(C)C2)nc2c1c(=O)n(C)c(=O)n2C (stereo not given)
  15	-4	1.1	0.8%	0%	0%	1%
- Cc1ccc(CN2CCN(/N=C/c3ccccc3)CC2)cc1
  -7	-3	-0.2	/	-3%	-33%[inhibitor]	4%
- COCCCNC(=O)CCCN1C(=O)c2cccnc2Sc2ccccc21
  /	5	-0.2	-1.2%	3%	26%	11%
- COc1ccc(CC(=O)NC(CC(=O)O)c2cccc([N+](=O)[O-])c2)cc1 (stereo not given)
  15	-2	3.3	/	2%	-1%[15.4 µM]	?
- COc1cccc(NC(=O)CN(C)C(=O)/C=C/c2cn(-c3ccccc3)nc2-c2cccs2)c1
  19	-7	/	-1.2%	-14%	1%[15.4 µM]	/
- CC1=NN(C(=O)c2csc(C(C)C)c2)C(O)(C(F)(F)F)C1 (stereo not given)
  20	16	1.0	1.7%	-6%	-47%[inhibitor]	8%
- COc1ccccc1NC(=O)Nc1nnc(Cc2ccc(F)cc2)s1
  3	12	0.0	0.4%	3%	-18%	10%
- CS(=O)(=O)C1=NN2C(=N)/C(=C\c3ccc(OCCOc4ccccc4)cc3)C(=O)N=C2S1
  5	13	2.1	/	-24%	0%	-12%
- COc1cc(CNC23CC4CC(CC(C4)C2)C3)ccc1OCc1ccccc1
  -1	11	-9.5	/	8%	15%	-13%
- O=C(CSc1nc2ccc(Nc3nc(N4CCOCC4)nc(N4CCOCC4)n3)cc2s1)Nc1ccccc1F
  -5	-11	/	-2.3%	0%	-2%	?
- O=C(NCCC1CCCCN1S(=O)(=O)c1ccc(F)cc1)C(=O)NC1CC1 (stereo not given)
  11	-6	/	-1.7%	-9%	-3%	/
- CC1CCCN(CC(O)COCC2COc3ccccc3O2)C1 (stereo not given)
  10	-4	1.3	14%	9%	?	4%
- CCOC(=O)c1c(C)[nH]c(C(=O)OCC(O)=C(C#N)c2nc3ccccc3[nH]2)c1C
  0	/	/	/	4%	0%	/
- CCN(CC)CCN(C(=O)CCS(=O)(=O)c1ccccc1)c1nc2cc(C)cc(C)c2s1
  -7	-11	-0.8	1.5%	-8%	-12%	8%
- COc1c(OC(C)=O)ccc(/C=C/c2ccc3ccccc3n2)c1[N+](=O)[O-]
  -10	7	4.4	0.1%	25µM*	-25%	-1%
- CCN1CCCC1CNC(=O)c1cc(COc2ccc(C)c(C)c2)on1 (stereo not given)
  12	10	7.1	-2.3%	10%	13%	1%
- COc1ccc2[nH]c3c(c2c1)CCN1C(=O)C(CC(=O)NCc2ccco2)C[C@H](C(=O)N2CCOCC2)[C@@]31C (stereo not given in full)
  -15	/	/	-4.1%	1%	/	/
- Cc1ccc(-c2c(=O)n(O)c3ccccc3[n+]2[O-])cc1
  -20	5	?	/	-3%	-24%	11%
- CCCCCCCCOC(=O)c1cc([N+](=O)[O-])c(Sc2ncnc3nc[nH]c23)c([N+](=O)[O-])c1
  -4	/	/	3.0%	-10%	4%	/
- CCOC(=O)c1sc(NC(=O)CSc2nnc(C(C)C)n2CC)nc1C
  -1	11	-1.8	0.2%	0%	-14%	20%
- O=C1[C@@H]2[C@H](C(=O)N1Cc1ccco1)[C@H]1C=C[C@@H]2C1
  10	0	3.5	-1.2%	3%	?	-2%
- CCOc1cc(S(=O)(=O)n2cc(-c3ccc(F)cc3)c(N)n2)cc(OCC)c1OCC
  -6	-4	0.7	-1.4%	-1%[15.4 µM]	-4%	16%
- CCC1=NNc2cccc3c(OC)ccc1c23
  /	4	1.6	/	/	/	32µM*
- CCOC(=O)Cn1c(C)cc(=O)c2cccc(C)c21
  6	-6	-4.4	-7.3%	-4%	3%	9%
- CCCNC(=O)C1CC(=O)N(c2ccc(OCC(=O)Nc3cccc(C)c3C)cc2)C1 (stereo not given)
  -9	?	0.5	-2.6%	-3%	10%	19%
- Cc1cc(C)n(CCc2nc(-c3ccc(C)o3)cs2)n1
  -1	7	6.6	-0.5%	1%	-17%	8.9µM*
- CC1CN(C(=O)CCC(=O)N2CCCCC2)c2cc(Cl)ccc2O1 (stereo not given)
  2	-15	/	0.1%	-1%	24%	3%
- CCOc1ccc(Nc2nc(Cc3nnc(SCC(=O)c4ccc(C)c(C)c4)o3)cs2)cc1
  -3	17	-1.7	-1.1%	?	6%	8%
- CCCOc1ccc(C(=O)Nc2ccc3c(c2)OCCO3)cc1
  -19	-22	7.0	/	-29%	-36%[inhibitor]	12%
- O=C(Nc1ccc(Cl)cn1)c1ccc2c(c1)OCCO2
  2	7	0.2	/	-3%	-5%[15.4 µM]	8%
- CCn1cc(C(=O)NCc2cccs2)c(=O)c2cc(S(=O)(=O)N3CCOCC3)ccc21
  4	-5	4.6	-6.9%	2%	-14%	-6%
- Cc1cc(NC(=O)CN2C(=O)NC3(CCCCC3)C2=O)no1
  4	-14	5.4	/	6%	10%	9%
- CC(Sc1ccccn1)C(=O)NC1CCCC1 (stereo not given)
  -12	15	/	-1.9%	3%	?	/
- Cc1cc2c(cc(C(=O)OC(C(=O)NC3CCCCC3)C(C)C)n2C)o1 (stereo not given)
  1	-8	/	-4.2%	-10%	?	/
- Cc1ccc(S(=O)(=O)N2CCOCC2)cc1NC(=O)COC(=O)C1(C)CC1(Cl)Cl (stereo not given)
  -10	/	/	-4.9%	-1%	-7%	/
- CC1CCN(CCCn2c(=S)[nH]c3c(sc4ccc([N+](=O)[O-])cc43)c2=O)CC1
  -3	-12	-3.6	/	-19%	14%[15.4 µM]	56µM*
- Cc1cc(C)c(NS(=O)(=O)c2ccc3c(c2)oc(=O)n3C)c(C)c1
  0	/	/	-1.9%	/	-45%[inhibitor]	/
- O=C(COC(=O)c1cnccn1)Nc1ccc(Cl)cn1
  4	-2	/	/	12%	13%[15.4 µM]	/
- CCOc1ccc(CCNC(=O)COC(=O)c2ccncc2)cc1OCC
  26	/	/	-3.6%	11%	-32%[inhibitor]	/
- O=c1c2c3nc4ccccc4nc3n(Cc3ccccc3)c2ncn1Cc1ccco1
  20	-8	34[activator]	-30%	0%	4%	2.8µM*
- CCOC(=O)c1ccc(NC(=O)Nc2cc(C)cc(C)n2)cc1
  /	3	0.1	/	/	/	6%
- O=C(COC(=O)/C=C/c1ccccc1)NCc1ccco1
  10	/	/	2.2%	/	-91%[inhibitor]	/
- Cc1cccc(C)c1NC(=O)CNC(=O)c1ccc(COc2ccccc2)o1
  2	4	/	1.1%	2%	?	/
- Cc1ccc(Nc2nc(C(=O)N3CCC(C(=O)NC(C)C)CC3)cs2)cc1
  -12	6	-0.6	-0.9%	-11%	8%	8%
- CCOc1ccccc1CN1CCC(N2CCC(C(=O)NC3CC3)CC2)CC1
  34	4	-3.9	/	10%	-28%	13%
- CCOC(=O)N1CCN(S(=O)(=O)c2ccc3c(c2)CCN3C(=O)CC)CC1
  8	-2	4.8	-0.7%	-11%	-6%	5%
- CC(=O)c1ccccc1OCC(O)CN1CCN(c2ccccn2)CC1 (stereo not given)
  -7	-4	/	/	5%	13%	5%
- CCc1nn(CC(=O)N2CCN(CC)CC2)c(=O)c2cccn12
  10	-2	3.3	0.0%	-6%	?	-6%
- COc1ccc(OC)c(C(=O)CCCC(=O)c2cc(OC)ccc2OC)c1
  /	22	2.1	-9.2%	-12%	-7%	-13%
- COc1cccc(N2CCN(CC(=O)NCc3cccs3)CC2)c1
  -10	-14	-1.4	-2.5%	-6%	12%	16%
- COc1nc(NCCO)nc(Nc2ccccc2F)n1
  25	110*	2.3	/	-1%	-7%[15.4 µM]	9%
- CCN(CC)S(=O)(=O)c1ccc(Cl)c(C(=O)Nc2cccnc2)c1
  1	15	-0.7	-2.4%	3%	17%	20%
- CCOc1ccc2c(c1)nc(NCCCO)n2Cc1ccccc1
  8	1	-2.5	/	5%	-19%[15.4 µM]	11%
- Cc1ccc(S(=O)(=O)N2CCN(c3ccnc4cc(Cl)ccc34)CC2)cc1
  -4	4	0.0	?	?	25%	9%
- O=C1N[C@H]2CC=C[C@H]2N(Cc2cccs2)c2ccccc21
  -13	/	/	-2.6%	3%	/	/

New compounds follow
Every second line gives: TRPML1 blocker	TRPV1 potentiator	Menin-MLL FL inh	ClpP mod	gsp antagonist	gsp agonist	Sfp PPTase inh
- CC(C)Cc1ccc(C(C)C(=O)Nc2cccnc2)cc1 (stereo not given)
  -6	-5	0.8	/	9%	1%	13%
- Nc1ccc(-c2nc3ccc([N+](=O)[O-])cc3[nH]2)cc1
  17	-24	8.1	-0.7%	-15%	12%[15.4 µM]	1%
- CCOC(=O)c1c(CC(C)C)csc1NC(=O)C(C)C
  -12	5	2.4	-1.7%	-13%	-1%	-7%
- O=C(CN1CCN(C(=O)c2cccc(-n3cnnn3)c2)CC1)Nc1ccccc1Cl
  23	3	/	-1.2%	5%	-77%[inhibitor]	/
- Cc1ccc2nc(-c3cccc(Br)c3)cc(C(=O)NCC3CCCO3)c2c1 (stereo not given)
  4	-5	-4.1	14µM*	-15%	?	-9%
- O=C(Oc1ccc(-c2nnco2)cc1)c1ccc(F)c(S(=O)(=O)N2CCOCC2)c1
  -4	5	/	2.2%	-22%	-8%	/
